HPGD inh: inhibitors of human 15-hydroxyprostaglandin dehydrogenase (HPGD); P15428; purified HPGD, NADH fluorescence kinetic, PGE2 substrate; Potency, µM, without a hit: top-dose activity change, negative = inhibition, usual class: inhibitors; 150,000 compounds, 4.3% hits; AID 894; active = well fitted inhibition curve with a large enough effect (not every such curve was filed as active); inconclusive = small, poorly fitted or top-dose-only effect, or another doubt; inactive = no such curve, though single readings can be large or run the other way;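 note: top concentration of the series not given in the record; plate controls included wells without enzyme; inactives centre near -10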
Target sequence (P15428 whole entry, looked up): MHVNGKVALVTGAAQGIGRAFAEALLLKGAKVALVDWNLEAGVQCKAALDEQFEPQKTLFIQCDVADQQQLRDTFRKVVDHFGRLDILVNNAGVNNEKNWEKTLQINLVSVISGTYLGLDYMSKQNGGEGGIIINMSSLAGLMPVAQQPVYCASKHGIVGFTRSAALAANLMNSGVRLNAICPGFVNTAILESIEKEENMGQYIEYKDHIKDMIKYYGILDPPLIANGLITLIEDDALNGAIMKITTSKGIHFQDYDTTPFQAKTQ
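NADH formation kinetics: reaction with 30 uM PGE2 and 1 mM NAD+ (final), 20 nM enzyme, Tris-HCl pH 8 with Tween 20, after 15 min compound preincubation at room temperature. Fluorescence change, last versus first of five reads.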
Active calls of the source: *; ? = inconclusive; & = joins results of further samples; [ ] = remark or other dose. % is set by controls: 0 for no effect and ±100 for the full control effect; potency is the fitted concentration of half-maximal effect.

| molecule | HPGD inh |
| --- | --- |
| COc1ccc(-c2cnc(NCc3cc4c(cc3[N+](=O)[O-])OCO4)n2C)cc1 | 2% |
| CCOC(=O)Nc1ccc(S(=O)(=O)N(C)C(C)C)cc1 | ? |
| Cn1cnnc1SCc1ccc(C#N)cc1 | -4% |
| Cc1cc(C(=O)Nc2nc3c(s2)CCCC3)no1 | -18% |
| CC(C)OC(=O)N(C)c1ccc(C(O)(C(F)(F)F)C(F)(F)F)cc1 | -5% |
| Cc1cccc(NC(=O)C2CCN(S(=O)(=O)c3c(C)[nH]c(=O)[nH]c3=O)CC2)c1 | -3% |
| Cc1ccc(C(C)C)c(OCCNS(C)(=O)=O)c1 | -1% |
| CN1C2C=C(N(CCc3c[nH]c4ccccc34)C(=O)c3ccc(Cl)cc3)CC1CC2 (stereo unspecified) | -3% |
| CCOC(=O)NCc1ccc(Cl)c(Cl)c1 | 2% |
| C=C(C)C1Cc2c(C)nn(-c3nc(C)cc(C)n3)c2C1 (stereo unspecified) | -17% |
| C/C(=N\NC(=O)C(C)Sc1ccccc1)C(C)(C)C (stereo unspecified) | -1% |
| CN1CC[n+]2c(CN3C(=O)c4ccccc4C3=O)csc21 | 3% |
| CCN(CC)CCC[C@H](C)Nc1ccnc2cc(Cl)ccc12 | -4% |
| CCC(=O)NC(Nc1ccccn1)(C(=O)OC)C(F)(F)F (stereo unspecified) | -9% |
| Cc1[nH]c2ccccc2c1C(=O)CSC(=S)N1CCCCC1 | 25µM* |
| Cc1ccccc1NC(=O)CN(c1ccc(F)cc1)S(C)(=O)=O | 7% |
| COc1cc(/C=C/CO)cc(OC)c1O[C@@H]1O[C@H](CO)[C@@H](O)[C@H](O)[C@H]1O | -3% |
| O=C(c1cccc(C(=O)N2CCN(Cc3ccccc3)CC2)c1)N1CCN(Cc2ccccc2)CC1 | -5% |
| c1ccc(-c2oc3ncnc(NCCCN4CCOCC4)c3c2-c2ccccc2)cc1 | ? |
| CCCN1C(=O)SC(CC(=O)Nc2ccc(C)cc2)C1=O (stereo unspecified) | -16% |
| Cc1ccc(C(=O)Nc2ccccc2C(=O)NC2CCCCC2)cc1S(=O)(=O)N1CCOCC1 | -13% |
| Cn1cccc1CC(=O)NNC(=S)Nc1ccccc1Cl | 11µM* |
| O=C(Nc1c2c(nn1-c1ccc(F)cc1)CS(=O)C2)C12CC3CC(CC(C3)C1)C2 (stereo unspecified) | -2% |
| COC(C(=O)Nc1ccc(Cl)cc1C)c1ccccc1 (stereo unspecified) | -4% |
| CCN(CC)c1ccc(NC(=O)CSc2nnc(N)s2)cc1C | -9% |
| O=C(c1csnn1)N1CCC2(CC1)CN(c1ncccn1)C2 | ? |
| Cn1nc(-c2ccc(N3CCOCC3)c(NS(=O)(=O)c3ccc(Cl)cc3)c2)c2ccccc2c1=O | -9% |
| CCOn1c(SC(C)C)nc2ccccc2c1=O | -7% |
| CCOc1ccc(Cn2nnc(C(=O)Nc3cc(OC)cc(OC)c3)c2N)cc1 | ? |
| CC(C)n1cc(/C=C2/SC(=O)N(CC(=O)Nc3ccc4c(c3)OCO4)C2=O)c2ccccc21 | -5% |
| CC(=O)Nc1nc(C)c(-c2csc(Nc3cccc([N+](=O)[O-])c3)n2)s1 | -22% |
| C/C(=N\Nc1cc(-c2ccccc2)nc(-c2ccccc2)n1)c1ccc(O)c(C)c1 | ? |
| Cn1c(=O)c2c(nc(SCCN3CCOCC3)n2Cc2ccc(F)cc2)n(C)c1=O | -2% |
| C[C@@](O)(/C=C/[C@H]1CC=CC(=O)O1)[C@@H](C[C@@H](O)\C=C/C=C\C=C\CO)OP(=O)(O)O | 0% |
| O=C(CCc1nc(-c2ccccc2F)no1)NC1CCCCC1 | ? |
| COc1cccc(-c2nc(-c3ccccn3)no2)c1OC | -24% |

Entries from the list above containing an NH in an aromatic ring:
| molecule | HPGD inh |
| --- | --- |
| Cc1cccc(NC(=O)C2CCN(S(=O)(=O)c3c(C)[nH]c(=O)[nH]c3=O)CC2)c1 | -3% |
| CN1C2C=C(N(CCc3c[nH]c4ccccc34)C(=O)c3ccc(Cl)cc3)CC1CC2 (stereo unspecified) | -3% |
| Cc1[nH]c2ccccc2c1C(=O)CSC(=S)N1CCCCC1 | 25µM* |

Remaining list, next part
| molecule | HPGD inh |
| --- | --- |
| COc1ccc(-c2nnc(NC(=O)c3cc(Cl)ccc3Cl)o2)cc1 | -8% |
| CCOC(=O)COc1ccc(S(=O)(=O)Nc2cccc(SC)c2)cc1 | -7% |
| Cc1ccc(S(=O)(=O)c2cc(OC(=O)c3ccco3)ccc2OC(=O)c2ccco2)cc1 | -15% |
| C/C(=N\NC(=O)c1ccc(F)cc1)c1cccc(NC(=O)c2ccco2)c1 | -19% |
| CCCCNC(=O)NC1C(NC(=O)NCCCC)N(C)C(=O)N1C (stereo unspecified) | -2% |
| CC1CCCC(C)N1C(=O)CSc1nnc(COc2ccccc2)n1-c1ccccc1 (stereo unspecified) | -17% |
| O=C1CC(c2nc3ccccc3[nH]2)CN1c1ccccc1F (stereo unspecified) | 2% |
| CCOC(=O)c1c(C(F)(F)F)cc(-c2ccc(F)cc2)nc1C | -3% |
| Cc1ccc2cc3cc(C(=O)NCCN4CCOCC4)oc3nc2c1 | ? |
| CCCN1C/C(=C/c2cccc([N+](=O)[O-])c2)C(=O)/C(=C/c2cccc([N+](=O)[O-])c2)C1 | -14% |
| O=C(Nc1ccc(Cl)cc1)c1cc(S(=O)(=O)N2CCOCC2)cs1 | -7% |
| C/C(=N\NC(=O)CSCc1ccccc1Br)c1cccc([N+](=O)[O-])c1 | -7% |
| CC12C(=O)N(n3cnnc3)C(=O)C1C1C=CC2C1 (stereo unspecified) | 0% |
| COc1ccc(Nc2ncccc2C(=O)O)cc1 | -29% |
| O=C(O)Cc1cccnc1 | -7% |
| COCc1cc(=O)[nH]c(/N=C(\N)Nc2cccc(C)c2)n1 | -18% |
| Cc1ccc(S(=O)(=O)N(C)CC(=O)OCC(=O)N2CCN(c3ccccc3)CC2)cc1 | -11% |
| CCOC(=O)C1CCCN(C(=O)CCn2nc(-c3ccccc3)ccc2=O)C1 (stereo unspecified) | -5% |
| CC(=O)Nc1nc2cc3c(cc2s1)OCO3 | -5% |
| CCCn1c(SCCN2C(=O)c3ccccc3C2=O)n[nH]c1=O | -2% |
| O=C(c1ccco1)N1C2C=CC(C2)C1(C(F)(F)F)C(F)(F)F (stereo unspecified) | -7% |
| CCN(CC)c1nc2ccccc2[nH]1 | -12% |
| CCc1ccc(NC(=O)C2CCCCC2C(=O)O)cc1 (stereo unspecified) | 0% |
| O=C(O)CC(O)(CC(=O)O)C(=O)O | -3%&-7% |

New compounds follow:
SMILES	HPGD inh
COc1ccc(S(=O)(=O)CCC(=O)N(C)c2ccc(OC)cc2OC)cc1	-9%
S=C(NN=C1C2CC3CC(C2)CC1C3)Nc1ccccc1	-27%
Cc1nn(-c2ccccc2)c2nc(=O)n(-c3ccccc3)cc12	-8%
O=C1NCCCN1Cc1ccc(F)cc1	-14%
Cc1cccc(NC(=O)Cc2cccs2)n1	-17%
CC(C)NC(=O)/C(=C/c1cn(-c2ccccc2)nc1-c1cccc([N+](=O)[O-])c1)NC(=O)c1ccccc1	-5%
C=CCOc1ccc(CNC(C)(C)CO)cc1OC	-8%
CCOC(=O)c1c(N)sc(C(=O)N(C)C)c1C	-3%
CCOC(=O)c1c(NC(=O)COC(=O)Cn2c(C)nc3ccccc32)sc2c1CCCC2	-20%
O=C(CSc1nnc(CNc2ccc(F)cc2)n1-c1ccccc1)N1CCOCC1	-3%
COCCNC(=O)[C@H](C)[C@@H]1C[C@@]1(C)[C@@H](NC(=O)OCc1ccccc1)c1ccccc1	-28%
O=C(Nc1nc2ccc(S(=O)(=O)N3CCCCC3)cc2s1)c1cccnc1	-10%
CS(=O)(=O)N(Cc1ccccc1)c1ccc(C(=O)N2CCc3ccccc3C2)cc1	?
COc1cccc(CN2CCSCC2)c1	-8%
COC(=O)c1ccccc1S(=O)(=O)N1CCc2nc(-c3ccc(OC)cc3C)c3c(c2C1)CO[C@@H](c1ccccc1)C3	-2%
O=C(C1CCCN1S(=O)(=O)c1ccc(Cl)cc1)N1CCOCC1 (stereo unspecified)	6%
CCOc1ccc(N2CC(C(=O)Oc3ccccc3)CC2=O)cc1 (stereo unspecified)	-1%
COc1ccc2nc(SCc3cccc(C)c3)nc(C)c2c1	?
CCOC(=O)c1cnc(SC)nc1Oc1cccc(NS(=O)(=O)c2ccc(C)cc2)c1	-8%
O=C(c1cccs1)c1coc2ccc(O)c(CN(CCO)CCO)c12	-19%
Cc1nn(C(=O)c2cccnc2)c(C)c1Sc1ccccc1	-24%
COC(=O)c1ccccc1NC(=O)C1CCCN(c2nnc(-n3cccc3)s2)C1 (stereo unspecified)	-9%
COc1ccccc1Nc1ncc(C(=O)Nc2ccc(OC)c(OC)c2)c2ccccc12	-4%
Cc1ccc(NC(=O)c2cnn(-c3ccccc3)c2NC(=O)c2ccco2)cc1	-6%
NS(=O)(=O)c1ccc(CCNC(=O)CSc2nc3ccsc3c(=O)n2C2CC2)cc1	-5%
O=C(Nc1ncccc1Cl)C1COc2ccccc2O1 (stereo unspecified)	-30%
Cc1c(Cl)c(S(N)(=O)=O)cc(S(N)(=O)=O)c1NC(=O)c1ccc(Cl)cc1	-8%
O=c1[nH]n(-c2ccccc2)c(=O)c(Cl)c1Cl	-5%
COc1ccccc1N1CCN(S(=O)(=O)c2ccc3nc(-c4ccccc4)[nH]c3c2)CC1	-20%
Cc1cccc(CSc2nc(N)c(C#N)c(-c3cccs3)c2C#N)c1	?

Three compounds drawn at random from the list so far, as already listed:
SMILES	HPGD inh
CCOC(=O)c1c(NC(=O)COC(=O)Cn2c(C)nc3ccccc32)sc2c1CCCC2	-20%
O=C(C1CCCN1S(=O)(=O)c1ccc(Cl)cc1)N1CCOCC1 (stereo unspecified)	6%
CCOc1ccc(N2CC(C(=O)Oc3ccccc3)CC2=O)cc1 (stereo unspecified)	-1%

Going on with the list.
SMILES	HPGD inh
COc1ccc(-c2c(C)nn(-c3ccccc3)c2N)cc1	20µM*
Cc1n[nH]c(C)c1S(=O)(=O)N1CCCC(C(=O)N2CCc3ccccc32)C1 (stereo unspecified)	-7%
CCCCn1c(CNC(=O)C(C)(C)C)nc2ccccc21	-14%
NCCNS(=O)(=O)c1cccc2cnccc12	2%&-10%
COc1ccc(COC2OC[C@]3(C)[C@H]4C5=C(CN3C(=O)OC(C)(C)C)[C@H](C)C(CO)C(CO)C5CC[C@@H]24)cc1 (stereo partly specified)	-7%
CNC(=S)SCCOc1ccc(C)cc1	-10%
COc1ccc(N2CCN(C(=O)C34CCC(C)(C(=O)C3)C4(C)C)CC2)cc1 (stereo unspecified)	-5%
COc1ccc(C)cc1NC1=C(Cl)C(=O)N(C2CCCCC2)C1=O	-35%
CN1CCN(C(=O)c2cc(Cl)ccc2Cl)CC1	-4%
Cc1ccc(C)c2c1sc(=NC(=O)CN1C(=O)CCC1=O)n2C	-13%
O=C1C=CC(=C(c2ccc(O)cc2)c2ccc(O)cc2)C=C1	14µM*
O=C(c1ccc2c(c1)OCO2)N(Cc1ccco1)C1(C(=O)NC2CCCCC2)CCCCC1	-8%
CCCC(=O)N1CCN(c2nc(CC(C)C)c3c(c2C#N)CCC3)CC1	?
C=CCNC(=O)c1cc2c(C(F)(F)F)nn(C)c2s1	-5%
CC(C)(C)n1nnnc1CN(Cc1ccco1)Cc1cc2cc3c(cc2[nH]c1=O)OCO3	-25%
CCOC(=O)c1ccc(NC(=O)c2c(O)c3ccccc3n(C)c2=O)cc1	-12%
C#CCOCCOCCOCCNc1nc(N2CCN(C(=O)Cn3cc(CCCN=C(N)N)nn3)CC2)nc(N2CCN(C(=O)Cn3cc(CCCN=C(N)N)nn3)CC2)n1	-8%
O=C(O)c1cc(Cl)c(Cl)cc1C(=O)Nc1cccc2cccnc12	-7%
CCC(C)n1c(SCc2ccc([N+](=O)[O-])cc2)nc2ccsc2c1=O (stereo unspecified)	-4%
O=C(CN1C(=O)c2ccccc2C1=O)NCc1ccncc1	0%
C=CCC1c2cccc(C(=O)OC)c2C(=O)N1c1ccccc1 (stereo unspecified)	-11%
Cc1cc(C)n2cc(CSc3nnc(SCc4cn5c(C)cc(C)nc5n4)s3)nc2n1	-29%
NC(=NCCCCCCN=C(N)/N=C(\N)Nc1ccc(Cl)cc1)/N=C(\N)Nc1ccc(Cl)cc1	39%&0%&3%[activator]
O=C(/C=C/c1ccc2c(c1)OCO2)N1CCN(c2ccccc2F)CC1	-18%
CCc1nnc(NC(=O)CCN2C(=O)c3ccccc3C2=O)s1	-13%
CCOC(=O)N1CCN(C(=O)c2ccc(C)c(S(=O)(=O)Nc3ccccc3)c2)CC1	-15%
Cc1ccc(CN(c2ccc(C(=O)N3CCc4ccccc4C3)cc2)S(C)(=O)=O)cc1	?
Cc1ccc(NS(=O)(=O)c2ccc(CCC(=O)O)cc2)cc1	-11%
CC(C)n1c(=N)c(C(=O)NCCc2ccccc2)cc2c(=O)n3ccccc3nc21	?
CCCC(=O)NC(=S)Nc1sc2c(c1C(N)=O)CCC2	25µM*

HPGD inh: hit marks shown above
SMILES	HPGD inh
Cc1[nH]c2ccccc2c1C(=O)CSC(=S)N1CCCCC1	25µM*
Cn1cccc1CC(=O)NNC(=S)Nc1ccccc1Cl	11µM*
COc1ccc(-c2c(C)nn(-c3ccccc3)c2N)cc1	20µM*
O=C1C=CC(=C(c2ccc(O)cc2)c2ccc(O)cc2)C=C1	14µM*
CCCC(=O)NC(=S)Nc1sc2c(c1C(N)=O)CCC2	25µM*

Next part.
SMILES	HPGD inh
CCC(C)N1CC23C=CC(O2)C(C(=O)OCc2ccccc2)C3C1=O (stereo unspecified)	1%
O=C(NCc1ccncc1)/C(=N/O)c1ccccc1	-9%
C=CCN=C1SC(C)C(=O)N1S(=O)(=O)c1ccccc1 (stereo unspecified)	-15%
CCC(C)[C@H](NC(=O)OC(C)(C)C)C(=O)N/N=C/c1cccc2nccnc12 (stereo partly specified)	0%
CC1(C)Cc2c(c(N3CCOCC3)nc3sc(-c4ccc(C(=O)O)o4)c(N)c23)CO1	?

The list is partial; rates above refer to the full screens.
